TRPML1 agonist – activates the human TRPML1 channel | TRPML1-expressing cells, Ca2+ dye fluorescence, FDSS; host cell line not named in the record; reference of the full effect not given here | activation, % (concentration not given with the values) | actives 0.12% (n = 410,000); in the data active = activation above about 50%; inconclusive = about 30% to 50%; inactive = below about 30%; further: 0% is about no effect; the text of the record puts the active cut at 80%
Target sequence (Q9GZU1 whole entry, looked up): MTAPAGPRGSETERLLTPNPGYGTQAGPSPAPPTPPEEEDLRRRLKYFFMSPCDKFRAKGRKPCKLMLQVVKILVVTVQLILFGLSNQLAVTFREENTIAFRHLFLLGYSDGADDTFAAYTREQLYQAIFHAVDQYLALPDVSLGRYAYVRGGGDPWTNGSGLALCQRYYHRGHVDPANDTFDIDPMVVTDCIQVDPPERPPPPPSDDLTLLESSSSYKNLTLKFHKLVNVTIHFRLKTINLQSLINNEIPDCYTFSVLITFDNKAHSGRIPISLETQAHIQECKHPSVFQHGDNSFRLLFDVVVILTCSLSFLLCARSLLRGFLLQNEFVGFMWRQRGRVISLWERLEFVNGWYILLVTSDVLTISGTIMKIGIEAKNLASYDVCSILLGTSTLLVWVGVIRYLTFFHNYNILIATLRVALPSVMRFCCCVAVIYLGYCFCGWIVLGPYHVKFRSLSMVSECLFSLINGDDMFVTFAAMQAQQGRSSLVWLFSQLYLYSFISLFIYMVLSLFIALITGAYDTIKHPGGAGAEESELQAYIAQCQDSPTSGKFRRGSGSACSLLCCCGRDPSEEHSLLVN
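Tetracycline-induced TRPML1-DL cells are seeded and incubated overnight before loading with a no-wash Ca2+ dye and quencher. Agonist activity is taken from the 110 s fluorescence read following compound pin-transfer on an FDSS, before EC80 54-4 challenge.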
D2 ag – agonists of human D2 dopamine receptor (beta-arrestin) | P14416 | DiscoveRx PathHunter D2 beta-arrestin, luminescence, 90 min; 100% = 57 uM dopamine signal | activation, % (test concentration not listed) | actives 0.084% (n = 360,000) | AID 624465; in the data active = activation above about 40%; inconclusive = about 15% to 40%; inactive = below about 15%; further: compound concentration not given in the record; the text of the record calls up to 30% inactive
Target sequence (P14416 whole entry, looked up): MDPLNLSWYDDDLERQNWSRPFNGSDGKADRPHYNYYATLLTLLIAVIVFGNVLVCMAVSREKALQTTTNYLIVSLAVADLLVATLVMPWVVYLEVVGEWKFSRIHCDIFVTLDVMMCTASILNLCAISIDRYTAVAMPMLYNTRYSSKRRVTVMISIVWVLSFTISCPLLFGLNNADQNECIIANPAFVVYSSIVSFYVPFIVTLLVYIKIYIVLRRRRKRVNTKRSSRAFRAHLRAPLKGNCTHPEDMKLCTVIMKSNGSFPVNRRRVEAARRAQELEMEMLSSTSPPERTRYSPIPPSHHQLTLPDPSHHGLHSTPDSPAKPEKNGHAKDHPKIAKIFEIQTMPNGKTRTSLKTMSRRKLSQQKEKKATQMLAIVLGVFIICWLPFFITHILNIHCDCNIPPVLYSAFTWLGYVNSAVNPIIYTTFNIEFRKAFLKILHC
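Agonist mode: compounds alone added to overnight-plated D2 PathHunter cells for 90 min at 37 C, with 57 uM final dopamine (EC100) defining full response. Beta-arrestin recruitment detected by chemiluminescent reagent, read after 1 h at ambient temperature.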
Six1-Eya2 inh – Six1/Eya2 interaction inhibition; AlphaScreen GST-Six1/His-Eya2 binding, biochemical; stronger effect = lower value; control for the full effect not named in the record; actives 0.56% (n = 360,000); Q15475+O00167; activity change, % (concentration not given with the values); AID 651725; in the data active = activity change below about -65%; inconclusive = about -30% to -65%; inactive = above about -30%; further: on the % scale 0 is the no-effect control and ±100 the full control effect
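GST-Six1 + His-Eya2 (5X stock: 250/500 nM); Tris pH 8.0, 300 mM NaCl, 0.05% BSA, 0.02% Tween 20; GSH donor/Ni acceptor beads; 1 h 37 °C dark; AlphaScreen readout.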
D2 potentiator – potentiates the human D2 dopamine receptor allosterically; AID 624464; DiscoveRx D2 beta-arrestin cells, luminescence, 90 min; 100% = 57 uM dopamine signal; actives 0.23% (n = 360,000); potentiation, % (concentration not given with the values); active = potentiation of 50% or more; inconclusive = 30% to 50%; inactive = 30% or less;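 further: compound concentration not given in the record; tested on top of an EC20 dose of dopamine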
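PathHunter beta-arrestin assay in DiscoveRx D2 cells. Compounds were added with an EC20 of dopamine (50 nM final) for 90 min at 37 deg C. Luminescence was read 1 h after detection reagent, with 57 uM dopamine as the EC100 control.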
PINK1 expr mod – PINK1 expression modulation | Potency, µM (titrated, usually from 76.6 µM), inactives show at the top dose activation (PINK1 increase), actives largely listed as activators | actives 0.2% (n = 410,000) | PINK1 immunofluorescence, high-content cytometry, 24 h; active = well fitted activation curve with a large enough effect; inconclusive = small, poorly fitted or top-dose-only effect; inactive = flat fitted curve, though single readings scatter; cell line not stated here;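 further: potency means the concentration at half of the fitted maximal effect; % of control where 0% means no effect; nearly all actives have a fitted effect of over 65% in size; a mitochondrial uncoupler was the plate control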
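Readout is PINK1 immunofluorescence, quantified alongside mitochondrial, cell and nuclear markers by laser-scanning microplate cytometry. Cells from a stable line were exposed to compound titrations (5 concentrations) for 24 hours, with CCCP controls.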
TRPML1 inh – blocks the human TRPML1 channel; actives 0.02% (n = 390,000); TRPML1-inducible cells, Ca2+ dye fluorescence, FDSS; stronger effect = lower value; inhibition of EC80 agonist-evoked calcium signal; activity change, negative = inhibition, % (concentration not given with the values); AID 624415; Q9GZU1; in the data active means activity change below about -50%; inconclusive means about -30% to -50%; inactive means above about -30%;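 further: stimulus is agonist 54-4 at its EC80 concentration; on the % scale 0 is the no-effect control and ±100 the full control effect; compound concentration not given in the record; the text of the record puts the active cut at -80%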
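Tet-induced TRPML1-DL cells loaded with Ca8 no-wash calcium dye were read kinetically on FDSS. Compound addition was followed by EC80 agonist 54-4 (4 uM final); inhibition was read over 110 s.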
Active calls of the source: *; ? = inconclusive; · = no result given; & = joins results of further samples; [ ] = another dose, or the depositor's remark. This is a subset; the hit share may differ from the screen's.

SMILES | TRPML1 agonist | D2 ag | Six1-Eya2 inh | D2 potentiator | PINK1 expr mod | TRPML1 inh
C[C@@H]1COc2cccc(N3CCN(C)CC3)c2S(=O)(=O)N1 | 0.0 | · | -9 | · | -1.0% | ·
C[C@H]1CNC(=O)c2c(C(=O)N3CCN(C(=O)OC(C)(C)C)CC3)ncn21 | 0.4 | -3.3 | -6 | -11 | ? | -4
Cc1ccc2c(c1)C1CN(C)CCC1N2C(=O)c1cccnc1Cl (stereo not given) | -0.8 | -1.1 | 5 | -13 | 0.0% | -4
CCCCn1c(O)c(C(C)=Nc2ccc(C(=O)O)cc2)c(=O)[nH]c1=O | 1.4 | -0.9 | 2 | -16 | 0.8% | 11
CCCNC(=O)N1[C@H]2CC[C@@H]1C(C(=O)OC)=C(c1c(C)noc1C)C2 | -0.8 | -1.6 | 5 | -12 | -1.5% | 19
COc1ccc(C(c2nnnn2C2CCCC2)N2CCC3(CC2)C(=O)NCN3c2ccccc2)cc1 (stereo not given) | -0.4 | -3.4 | -6 | -6 | 2.3% | ·
C[C@]12CC[C@H](OC(=O)CCC(=O)O)CC1=CCC1C2CC[C@@]2(C)C1CC[C@@H]2OC(=O)CCC(=O)O (stereo not given in full) | 0.7 | 4.2 | -23 | 4 | -3.2% | -6
CCCOC(=O)c1c(N)n(Cc2cccs2)c2nc3ccccc3nc12 | 2.7 | -4.7 | 9 | -20 | 1.8% | 26
COc1ccc(-c2ccc3c(c2)CN(CC(C)C)Cc2cnnn2-3)cc1 | -0.5 | -6.8 | -4 | -11 | 0.6% | ·
CC(C)(C)C(=O)OC[N+](C)(C)CCOC(=O)C(O)(c1ccccc1)C1CCCC1 (stereo not given) | 0.0 | 11 | -24 | -15 | -0.2% | -5
CC(=O)c1ccc(OC(C)C)c(Cc2c(O)[nH]c(=S)[nH]c2=O)c1 | 2.0 | 1.3 | 2 | 1 | -1.2% | 0
C/C(=N\Nc1ccccc1)c1c(O)n(Cc2ccccc2)c(=O)[nH]c1=O | -0.9 | 11 | -6 | 57* | -1.0% | 0
O=c1[nH]c(=O)n(-c2ccc(F)cc2)c(O)c1C=NCCN1CCCCC1 | -0.7 | 1.1 | -10 | -5 | 4.8% | 5
O=c1cc(CN2CCNCC2)nc2sccn12 | 0.3 | -0.6 | 0 | -5 | -0.8% | 50
Cc1cc(OCC(=O)N[C@H](C(=O)O)c2ccccc2)c2c3c(c(=O)oc2c1)CCC3 | · | -6.5 | ? | -33 | 0.4% | ·
CCCCc1nc(N2CCNCC2)c(C#N)c2c1CSC(C)(C)C2 | 0.0 | -1.7 | 0 | -14 | -0.2% | -4
COc1cc(CNCCc2c[nH]c3ccccc23)cc(OC)c1 | -1.4 | -5.2 | -28 | -17 | 8.3% | 9
Cc1ccc(O)c(C(=O)c2cc(C(=O)NCCC(C)C)c(=O)n(CCC(C)C)c2)c1 | 2.0 | 10 | 16 | 7 | -2.7% | 21
O=C(CN1CC=C(c2ccccc2)CC1)Nc1cc(Cl)ccc1Cl | 0.3 | -3.1 | 0 | -37 | 6.7% | 9
C[C@]12CCC(=O)C=C1CCC1C2CC[C@@]2(C)C1CC[C@@]2(O)CC#N (stereo not given in full) | 0.5 | 2.6 | 23 | 5 | 1.0%[38.3 µM] | -26

Next part; the last 5 above are carried over.
SMILES | TRPML1 agonist | D2 ag | Six1-Eya2 inh | D2 potentiator | PINK1 expr mod | TRPML1 inh
CCCCc1nc(N2CCNCC2)c(C#N)c2c1CSC(C)(C)C2 | 0.0 | -1.7 | 0 | -14 | -0.2% | -4
COc1cc(CNCCc2c[nH]c3ccccc23)cc(OC)c1 | -1.4 | -5.2 | -28 | -17 | 8.3% | 9
Cc1ccc(O)c(C(=O)c2cc(C(=O)NCCC(C)C)c(=O)n(CCC(C)C)c2)c1 | 2.0 | 10 | 16 | 7 | -2.7% | 21
O=C(CN1CC=C(c2ccccc2)CC1)Nc1cc(Cl)ccc1Cl | 0.3 | -3.1 | 0 | -37 | 6.7% | 9
C[C@]12CCC(=O)C=C1CCC1C2CC[C@@]2(C)C1CC[C@@]2(O)CC#N (stereo not given in full) | 0.5 | 2.6 | 23 | 5 | 1.0%[38.3 µM] | -26
O=C(Nc1ccc(F)c([N+](=O)[O-])c1)N1C[C@H]2C[C@@H](C1)c1cccc(=O)n1C2 | -0.5 | -8.6 | 3 | -8 | -0.1% | -1
CNC(=O)O/N=C(\N)Cc1csc2ccccc12 | -0.4 | 4.0 | -11 | 0 | 8.7% | -4
Cc1ccc2c(c1)CCCN2N=O | 0.0 | -3.7 | 9 | -7 | ? | 8
Clc1ccc2c(N3CCNCC3)ccnc2c1 | 1.0 | -2.8 | 8 | -5 | -0.7% | -7
CCc1ccccc1NC(=O)c1cccn(Cc2ccccc2F)c1=O | 1.8 | · | · | · | -2.7% | -9
Cc1cccc(-n2c(/C=C/c3ccccc3O)nc3ccccc3c2=O)c1 | 0.7 | · | · | · | -0.1% | 1
Cc1cc(OC(=O)N(C)C)nc(-c2ccc(C)c(Cl)c2)n1 | 1.4 | -4.7 | 20 | -10 | 3.4% | 5
O=P(O)(O)Cc1ccccc1OP(=O)(c1ccccc1)c1ccccc1 | -0.4 | -3.2 | 20 | 5 | -0.5% | 0
O=C1NCN(c2ccccc2)C12CCN(C(c1ccccc1OC(F)(F)F)c1nnnn1C1CCCC1)CC2 (stereo not given) | -0.3 | -3.4 | -7 | -9 | 16% | ·
C[N+]1(CC(COCc2ccccc2)OC(=O)Cc2ccccc2)CCOCC1 (stereo not given) | 1.0 | -1.3 | 5 | -9 | -2.1% | ?
CN(CCc1nnc(N)s1)[N+](=O)[O-] | 0.3 | -3.5 | 7 | 2 | 0.8% | 29
CCOC(=O)C(O)(c1ccc(NC(=O)NC)cc1)C(F)(F)F (stereo not given) | -0.1 | -0.5 | -1 | -8 | -0.2% | 8
COc1ccc(-n2c(O)c(/C=C3\C=Nc4ccccc43)c(=O)[nH]c2=O)cc1 | 0.2 | -2.6 | 8 | -14 | ? | -4
CCOC(=O)C(O)(c1ccc(NC(=O)Oc2ccccc2)cc1)C(F)(F)F (stereo not given) | -0.8 | -3.7 | 4 | -7 | 8.4% | -2
Cc1ccc(N2C(=O)NC(=O)C(CCc3ccccn3)(Cc3cccc(Cl)c3Cl)C2=O)cc1 (stereo not given) | 1.2 | -0.2 | 5 | -11 | 4.9% | 10
NC(Cc1nc2ccccc2[nH]1)c1ccc(Cl)cc1 (stereo not given) | 0.1 | -3.9 | 4 | -16 | -1.2% | 11
COc1ccccc1OCC#CCN1CCCC1 | 2.4 | 3.0 | 7 | -6 | 0.7% | -5
Cc1c(Oc2cc(NN3CCCCC3)c([N+](=O)[O-])cc2[N+](=O)[O-])cccc1[N+](=O)[O-] | -0.8 | -4.2 | -14 | -1 | 2.4% | 0
CCC(=NCC1CCCO1)c1c(O)[nH]c(=O)[nH]c1=O (stereo not given) | -0.1 | -2.2 | 1 | 23 | -0.7% | -7
Cc1cc(C)c2c(c1)NP(=S)(c1ccccc1)N2 (stereo not given) | 0.6 | -2.7 | 6 | -19 | 5.6% | 6
CCOC(=O)C1=C(C)OC(N)=C(C(=O)OCC)[C@@]12C(=O)N(CC(N)=O)c1ccccc12 | -0.9 | 4.2 | 2 | 1 | -1.1% | 2
COC(=O)C1=C(c2ccc(-c3ccccc3)c(F)c2)C[C@@H]2CC[C@H]1N2C(=O)NCc1ccc(F)cc1 | 2.0 | -3.7 | 1 | -12 | -0.4% | 5
Cc1cccc(N2CCN(Cc3ccc4c(c3)OCO4)CC2)c1C | 0.4 | 0.5 | -22 | -24 | ? | 16
O=C(c1ccccc1F)N1C[C@H]2C[C@@H](C1)c1cccc(=O)n1C2 | · | -3.4 | 6 | -8 | 0.1% | ·
CC(C)S(=O)(=O)N1Cc2ccccc2-n2nncc2C1 | 0.0 | -10 | 2 | -1 | 2.1% | -5
CC1(C)CC(=O)c2cc(OCC(=O)N3CCN(Cc4ccccc4)CC3)ccc2O1 | -0.7 | -5.1 | 2 | -14 | 0.6% | 1
C/C=C/c1ccc2c(c1)OCO2 | -0.8&0.2 | 0.9 | -2 | -2 | 0.7%&1.2%&1.9% | 6
CC(C)c1ccc(NC(=O)CN2C(=O)CN=C(c3ccccc3)c3ccccc32)cc1 | 3.5 | · | · | · | 6.3% | -5
CC(=O)O[C@@]12CO[C@@H]1C[C@H](O)[C@@]1(C)C(=O)[C@H](O)C3=C(C)[C@@H](O)C[C@@](O)([C@@H](OC(=O)c4ccccc4)C12)C3(C)C (stereo not given in full) | · | 6.3 | 6 | -20 | 4.5% | ·
Cc1cccc(-n2c(C)nc3cc(C(=O)N4CCC5(CC4)OCCO5)ccc32)c1 | -0.3 | -0.1 | 0 | -1 | 17%[38.3 µM] | 4
COC(=O)C1=C(c2cc3ccccc3o2)C[C@@H]2CC[C@H]1N2C(=O)N1CCC(C)CC1 | -0.9 | -6.6 | -9 | -24 | 26% | 7
CC(=O)c1ccc(OC(NC(=O)c2ccco2)C(Cl)(Cl)Cl)cc1 (stereo not given) | -0.1 | -0.7 | 4 | -1 | -2.6%[38.3 µM] | -8
N#Cc1ccc(Cn2cc(C(=O)c3ccco3)c3ccccc32)cc1 | -0.7 | 2.1 | -8 | 6 | 2.4% | -11
CC(C)c1ccc(C2N3CCCN23)cc1 (stereo not given) | -0.4 | 1.4 | -7 | -7 | 1.1% | -14
CCCCn1c(O)c(C(C)=Nc2ccc(OCC)cc2)c(=O)[nH]c1=O | 1.2 | -1.7 | -14 | -10 | -0.6% | 4
CN(C)C(=O)Oc1cc(OC(=O)N(C)C)cc(C(O)CNC(C)(C)C)c1 (stereo not given) | -0.9&0.3 | -3.6&-3.5 | 7&6 | -6&-2 | 0.4%&3.0%&-0.1% | -7&-5
COc1ccc(CCN(C)Cc2ccc(F)cc2F)cc1OC | 0.1 | -1.0 | -2 | -25 | 0.8%[38.3 µM] | 16
CN1C(=O)C(=Cc2c(OCc3cnc(Cl)s3)ccc3ccccc23)C(=O)N(C)C1=O | 2.3 | -2.8 | 0 | 4 | 5.2% | -4
O=C(COc1ccccc1[N+](=O)[O-])N1CCN(CCc2ccncc2)CC1 | 2.2 | · | · | · | 2.3% | -14
COc1ccc2ccccc2c1CNCCc1ccccc1 | · | 0.7 | 2 | -66 | 3.2% | ·
Fc1ccc(CCNCc2ccc(Br)cc2)cc1 | 0.8 | -7.0 | 1 | -17 | 7.8% | 9
CCC(=NCC1CCCO1)c1c(O)n(-c2ccc(OC)cc2)c(=O)[nH]c1=O (stereo not given) | -0.3 | -2.2 | 17 | -5 | -0.1% | 22
CC1(C)C2CC=C(CN3CCC(O)CC3)C1C2 (stereo not given) | -0.4 | -0.2 | 6 | -15 | 0.6%[38.3 µM] | 7
Cc1cccc(NC(=O)CN2CCN(C(=O)COc3cccc(Br)c3)CC2)c1C | 1.9 | 9.2 | 0 | 1 | 1.1% | 14

Bioassay records as filed in PubChem BioAssay.
